High-throughput results as filed in PubChem.
RE007 growth inh – less growth of the S. pombe RE007 Vpr strain; S. pombe RE007 Vpr strain, BacTiter-Glo ATP luminescence, 24 h; control for the full effect not named in the record; 360,000 compounds, 0.21% hits; Potency, µM (series often up to 92.2 µM), inactives show at the highest dose activity change, negative = less growth; AID 651644; active = well fitted falling curve with a large enough effect; inconclusive = small, poorly fitted or top-dose-only effect; inactive = no such curve, though single readings can be large or run the other way;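 also: nearly all actives have a fitted effect of over 50% in size; the assay follows cell death caused by Vpr and the record does not say whether a fall means rescue or toxicity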
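Fission yeast RE007 carrying one integrated HIV-1 vpr copy, seeded at OD 0.01 in PMG+AL medium with 23 nL pinned compound. Grown 24 h at 30 degrees; viability read by BacTiter-Glo luminescence after 5 min.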
2A StopGo – FMDV 2A StopGo reporter, luciferase signal; 410,000 compounds, 1.2% hits; human cells with a luciferase reporter of 2A StopGo recoding; control for the full effect not named in the record; Potency, µM (top dose mostly 57.9 µM), for inactives: top-dose signal change, negative = less light; active = well fitted falling curve with a large enough effect; inconclusive = small, poorly fitted or top-dose-only effect; inactive = no such curve, though single readings can be large or run the other way; tested in HEK293T cells; also: nearly all actives have a fitted effect of over 45% in size; luciferase light after 4 h
An asterisk follows results filed as active; ? = inconclusive; [ ] = remark or other dose. % is scaled to controls: 0 for no effect and ±100 for the full control effect; potency is read from the fitted curve at half-maximal effect. These rows are one share of the data; rates above refer to the full screens.

Compound	RE007 growth inh	2A StopGo
CC(C)NC(=O)C1(C)CCN1C(=O)c1ccccc1F (stereo not drawn)	0.1%[18.4 µM]	-15.1%
CC(=O)Nc1cccc(NC(=O)C(=O)c2cn(CC(=O)N3CCCC3)c3ccccc23)c1	-3.7%	35.3%[activator]
CCCCn1nnnc1C(c1cc2ccccc2o1)N1CCN(c2ccccc2F)CC1 (stereo not drawn)	4.5%	24.4%
CC1(C)CC(=O)C(=Cc2cn(-c3ccccc3)nc2-c2ccccc2)C(=O)C1	-19.1%	?
Cc1ccc(C)c(C(O)c2ncc(-c3ccccc3Cl)[nH]2)c1 (stereo not drawn)	-12.0%	71.6%[activator]
NC(=O)C1CCN(C(=O)c2cc(S(=O)(=O)N3CCN(c4ccccc4)CC3)ccc2Cl)CC1	4.4%	-20.0%
CC(=O)NC[C@H]1O[C@@H](n2ccc(N)nc2=O)[C@H](O)[C@@H]1O	11.0%	?
c1ccc(-c2nc3c4ccccc4ccn3c2CC2CCCCC2)cc1	-19.3%	-5.8%
COC(=O)C1=C[C@@H](C(=O)OC)[C@@H]2C3=C(C(=O)[C@@]2(C)NC(=O)c2ccccc2)[C@H](c2ccccc2)[C@@H]2C(=O)NC(=O)[C@@H]2[C@@H]3C1	-10.0%	-8.3%
NC(=O)c1cccc(-c2csc(C(O)c3ccccc3)n2)c1 (stereo not drawn)	16.9%	14.6%
CC(C)(O)C#Cc1ccc(CNC[C@H]2O[C@@H](n3cnc(C(N)=O)n3)[C@H](O)[C@@H]2O)s1	-5.1%	-23.7%
O=C(OCC(=O)N1CCN(C(=O)COC(=O)c2ccccc2NCCO)CC1)c1ccccc1NCCO	-0.8%	-8.6%
COc1cccc(S(=O)(=O)N(C)C[C@H]2OCc3cn(nn3)CCCC(=O)N([C@@H](C)CO)C[C@@H]2C)c1	-2.4%	-6.0%
Cc1ccc2cc(F)c(F)c(F)c2n1	11.1%	-14.6%
O=C(NCC(c1ccco1)N1CCN(c2ccccc2)CC1)C1CCCCC1 (stereo not drawn)	0.8%	-18.9%
CCCC[C@@H]1Cc2[nH][nH]c(=O)c2[C@H](c2cccc3ccccc23)O1	-21.9%	-12.9%
COc1ccc(C(O)c2ncc(-c3ccc4ccccc4c3)[nH]2)cc1 (stereo not drawn)	-10.9%	51.0%[activator]
CCOc1ccc(CNC(=O)CN2C(=O)CSc3ccc(S(=O)(=O)N4CCOCC4)cc32)cc1	9.4%	-11.2%
Cc1cc(C)c(S(=O)(=O)N(C)CC(=O)N2CCCC2)c(C)c1	2.5%	9.4%
CCCNC(=O)C1(C)CCN(Cc2ccc(-c3ccccn3)cc2)C1 (stereo not drawn)	-3.0%	-8.4%
CC1(C)OC(=O)C2=C(C[C@@H](C3CC3)O[C@H]2CCc2cccc(Cl)c2)O1	-7.8%	-22.2%
COc1ccc(Cl)cc1-c1cc(C(=O)N[C@H](C)c2ccccc2)[nH]n1	22.0%	3.6%
CC(=O)Nc1cccc(Oc2nc(NCCN(C)C)nc3ccsc23)c1	-8.1%	-20.0%
O=C(CCNC(=O)N1CC(=O)Nc2ccccc21)NCc1ccccc1	0.0%	-14.5%
O=C1[C@H](Cc2ccccc2)NCCCC[C@H](c2ccc(Cl)cc2)N1Cc1ccc(Cl)cc1	-1.4%	0.0%
O=C(NCC1=C(c2cccc3ccccc23)C[C@@H]2CC[C@H]1N2Cc1ccco1)c1ccc([N+](=O)[O-])cc1	-8.5%	-26.8%
CCCC(=O)N1CCCC1(C)C(=O)Nc1ccc2c(c1)CCN2C(C)=O (stereo not drawn)	5.5%	-11.4%
CCOC(=O)[C@]12CCC=C1N(Cc1ccc(Cl)cc1Cl)C(=O)[C@H](CC(=O)NCc1cccc3ccccc13)C2	-5.8%	-11.6%
O=C1NC[C@@H](CCCCN2C[C@H](Cc3ccccc3)N(CC3CCCCC3)C(=O)C2=O)N(CC2CCCCC2)C1=O	-0.1%	60.7%[activator]
O=C(NC1CCCCC1)C(c1ccccc1)n1c(=O)c(-c2cc3ccccc3[nH]2)nc2ccccc21 (stereo not drawn)	7.4%	-9.9%

The final 4 records of the section before are carried over, then new ones follow.
Compound	RE007 growth inh	2A StopGo
CCCC(=O)N1CCCC1(C)C(=O)Nc1ccc2c(c1)CCN2C(C)=O (stereo not drawn)	5.5%	-11.4%
CCOC(=O)[C@]12CCC=C1N(Cc1ccc(Cl)cc1Cl)C(=O)[C@H](CC(=O)NCc1cccc3ccccc13)C2	-5.8%	-11.6%
O=C1NC[C@@H](CCCCN2C[C@H](Cc3ccccc3)N(CC3CCCCC3)C(=O)C2=O)N(CC2CCCCC2)C1=O	-0.1%	60.7%[activator]
O=C(NC1CCCCC1)C(c1ccccc1)n1c(=O)c(-c2cc3ccccc3[nH]2)nc2ccccc21 (stereo not drawn)	7.4%	-9.9%
CCc1nc2ccc(C(=O)N3CCCCC3)cn2c1N(C)CCCc1ccccc1	-5.6%	-7.1%
COc1ccc(OC)c(NC(=O)C2(C)CCN2Cc2cccc(OC)c2F)c1 (stereo not drawn)	4.2%[18.4 µM]	?
COC(=O)c1sccc1NC(=O)c1ccccc1Br	?	-8.3%
COc1ccc(S(=O)(=O)NC(=O)C2(C)CCN2C(=O)Cc2cccc3ccccc23)cc1 (stereo not drawn)	7.2%	-13.7%
CCOC(=O)c1ccc(NC(=O)Nc2nncs2)cc1	10.7%	?
CC1(C(=O)NS(=O)(=O)c2ccccc2C(F)(F)F)CCN1C(=O)CC1CCCC1 (stereo not drawn)	8.1%	-12.8%
COc1cccc(OC2(C)CCN(Cc3ccc(-c4ccccn4)cc3)C2)c1 (stereo not drawn)	-16.3%[18.4 µM]	?
CC(=O)N1CCc2c(sc(NC(=O)c3ccc(S(=O)(=O)N(C)CC4CCCO4)cc3)c2C(N)=O)C1 (stereo not drawn)	-6.1%	-14.7%
CCc1nc2ccc(C(=O)N3CCN(C(=O)c4ccco4)CC3)cn2c1N(C)C(=O)Nc1ccccc1OC	0.1%[18.4 µM]	-20.2%
Cc1cc(C)cc(C(O)c2ncc(-c3ccc(Cl)cc3)[nH]2)c1 (stereo not drawn)	-3.5%	-5.6%
Cc1ccc([C@@H]2CC(=O)[C@@H]3CN(S(=O)(=O)c4ccc(C)cc4)[C@H](c4ccc(Cl)cc4)C[C@@H]3N2S(=O)(=O)c2ccc(Cl)cc2)cc1	1.2%	-22.4%
O=C1C(=Cc2ccccc2Cl)CCc2ccccc21	0.8%[18.4 µM]	-15.2%
COc1ccc(NC(=O)COC(=O)C2COc3ccccc3O2)cc1OC (stereo not drawn)	-6.8%	-17.9%
CC(=O)NCC1=C(c2cccc3ccccc23)C[C@@H]2CC[C@H]1N2Cc1ccco1	-13.9%	-11.0%
CC(=O)NCCNC(=O)C1(C)Cc2c(-c3cccc(C(F)(F)F)c3)ccnc2O1 (stereo not drawn)	-0.2%	-19.6%
O=c1cc(-c2ccccc2)oc2cc(O)ccc12	-17.1%	44.6%[activator]
Cc1cccc(S(=O)(=O)NC(=O)C2(C)CCN2C(=O)Cc2ccc(Cl)cc2Cl)c1 (stereo not drawn)	15.5%[18.4 µM]	8.4%
CCC(=O)N(C)C[C@H]1Oc2cc(-c3ccccc3F)ccc2S(=O)(=O)N([C@H](C)CO)C[C@H]1C	0.1%	69.4%[activator]
O=C(NCc1ccccc1)c1cc(C2COCCN2C(=O)C/C=C/c2ccccc2)on1 (stereo not drawn)	13.6%	-13.7%
C#CCNC(=O)C[C@@H]1C[C@@]2(C(=O)OCC)CCCC=C2N(Cc2ccco2)C1=O	8.2%	-17.0%
O=C(NCc1cc(Cl)cc(Cl)c1)c1ccc2nc(COCCO)[nH]c2c1	2.2%[18.4 µM]	-12.5%
CCCCCCCCN1C(=O)[C@H](CC(=O)NCCCOCCCC)C[C@@]2(C(=O)OCC)CCCC=C12	7.8%	-21.2%
O=C(CCCc1ccc(N(CCCl)CCCl)cc1)NCc1ccccc1	-14.4%	-4.4%
Cc1ccccc1S(=O)(=O)NC(=O)C1(C)CCN1C(=O)C/C=C/c1ccccc1 (stereo not drawn)	4.2%	-13.5%
CC(=O)N1CCN(Cc2cc(=O)oc3ccc4ccccc4c23)CC1	13.2%	-21.6%
COc1ccc([C@@H]2[C@@H](C)N(c3ccccc3)c3ccccc3C(=O)N2Cc2ccccc2)cc1	5.1%	0.0%
O=C(O)C1Nc2ccc(C(F)(F)F)cc2C2OCCC12 (stereo not drawn)	18.3%	-16.4%
CCCc1cc(C(=O)Nc2cccc(-c3nn[nH]n3)c2)sc1C	-6.7%	4.7%
COc1cccc(-c2cnc3c(NC=O)cc(-c4ccc(N(C)C)cc4)cn23)c1	7.9%[18.4 µM]	0.4%
Nc1[nH]c(C(=O)c2ccccc2)c(-c2c(F)cccc2F)c1C(=O)c1ccc(Cl)c(Cl)c1	19.1%	?

Other compounds:
Compound	RE007 growth inh	2A StopGo
Cc1cc(NC(=O)C2(C)CCN2C(C)C)c2ccccc2n1 (stereo not drawn)	-21.4%	-18.0%
CC(=O)Nc1cccc(-c2ccnc3c2CC(C(=O)Nc2ccc(C(C)C)cc2)O3)c1 (stereo not drawn)	9.8%	-6.8%
O=C1NC[C@H](CCCCN2C[C@H](Cc3ccc(O)cc3)N(Cc3ccccc3)C(=O)C2=O)N(CC2CCCCC2)C1=O	4.8%	-18.6%
O[C@H]1C[C@H](c2ccccc2)N(Cc2cccs2)C[C@@H]1n1cc(C2CC2)nn1	-23.6%	-20.4%
CCCCN1C(=O)C(CC(=O)NC(c2ccccc2)c2ccccc2)CC(C(=O)N(C(C)C)C(C)C)=C1C (stereo not drawn)	6.7%	?
COC(=O)C1=C(c2ccccc2)C[C@@H]2CC[C@H]1N2C(=O)N1CCC(C)CC1	-10.5%	-4.7%
O=S(=O)(CCNC1CC1)NC1CCCCC1	4.9%	-16.4%
CCn1c(SCC(=O)NC2CC2)nnc1-c1ccccc1	9.4%	-23.0%
O=C1c2ccccc2C(c2nnnn2-c2ccc3c(c2)OCCO3)N1CCCn1ccnc1 (stereo not drawn)	-19.1%	-10.4%
O=C(CSc1n[nH]c(=O)n1CCc1ccccc1)NC1CCCC1	3.1%	-13.0%
COc1ccc(-c2ccc(C(=O)NCCN3CCOCC3)c3occc23)c(C)c1	4.4%[18.4 µM]	?
COC(=O)[C@@]12C[C@@H](CC(=O)N3CCSCC3)C(=O)N(Cc3ccccc3)C1=CCC(C)(C)C2	0.0%	0.7%
Cc1ccc(S(=O)(=O)CCC(=O)OCC(=O)Nc2sccc2C#N)cc1	-10.3%	-9.3%
Cc1cc(F)ccc1S(=O)(=O)N1CCCOC1CNC(=O)C(=O)NCCc1ccco1 (stereo not drawn)	-1.6%	-6.3%
CCCOc1ccc(F)cc1-c1cc(C(=O)Nc2ccc(OC)cc2OC)[nH]n1	-17.2%[18.4 µM]	-6.4%
OC[C@@H]1CN(Cc2cccc(C(F)(F)F)c2)C[C@H](n2cnc3c(NCc4ccc(F)cc4)ncnc32)O1	27.4%	?
CC1(Cc2ccc(C(F)(F)F)o2)C(=O)Nc2ccc(-c3cccc(C(F)(F)F)c3)cc21 (stereo not drawn)	8.2%[18.4 µM]	-0.2%
Cc1cccc(CN2[C@H](CO)C=CS2(=O)=O)c1	2.6%	-9.7%
COc1ccc(CN2C(=O)CCC2(C)c2nnnn2Cc2ccccc2)cc1 (stereo not drawn)	0.3%	-16.8%
C[C@@H]1CN([C@H](C)CO)C(=O)CCCn2cc(nn2)CO[C@H]1CN(C)S(=O)(=O)c1cccs1	-5.3%	-12.7%
O=C1C=C(c2cccc(O)c2)CCC1	1.0%	-5.2%
CN(C)CCCNC(=O)OC1CC2CC1[C@H]1CCCCN1C2=O (stereo partly drawn)	-11.3%	-17.2%
CCOC(=O)C1(C)CCN1C(=O)Cc1ccc(OC)cc1 (stereo not drawn)	-0.8%	-20.5%
O=C1NC[C@@H](CCCCN2C[C@H](Cc3ccccc3)N(CCC3CCCCC3)C(=O)C2=O)N(CC2CCCCC2)C1=O	4.4%	39.3%[activator]
Cn1nc(C(C)(C)C)cc1C(=O)N1CCCC(C)(C(=O)NS(=O)(=O)C2CC2)C1 (stereo not drawn)	12.2%	-4.0%
CC1(C(=O)NS(=O)(=O)c2ccc(Cl)cc2)CCN1C(=O)CC1CC1 (stereo not drawn)	2.4%[18.4 µM]	-9.3%
COc1ccc(C(c2nnnn2-c2ccc(OC)cc2)N2CCC(n3c(=O)[nH]c4ccccc43)CC2)cc1 (stereo not drawn)	-1.6%	?
O=C(NCc1cccnc1)c1ccc2sc([C@H]3C[C@H](O)[C@@H](CO)O3)nc2c1	-7.3%	-10.9%
O=C(/C=C/c1ccccc1)Nc1cccc(C(=O)NCCc2ccccc2)c1	-12.3%	-29.3%
OC[C@@H]1CN(Cc2ccc(F)cc2)C[C@H](n2cnc3c(NCc4ccncc4)ncnc32)O1	-11.3%	-22.9%

Compounds above containing an aryl thioether with sulfur outside any ring (2):
Compound	RE007 growth inh	2A StopGo
CCn1c(SCC(=O)NC2CC2)nnc1-c1ccccc1	9.4%	-23.0%
O=C(CSc1n[nH]c(=O)n1CCc1ccccc1)NC1CCCC1	3.1%	-13.0%
